rRNA inh HTS: reduced GFP signal of wild-type E. coli, primary screen, bacterial rRNA inhibitor project, GFP/RFP fluorescence, OD600, single point; E. coli WT GFP vs humanized-ribosome RFP mutants, 24 h; hits give low values; DMSO median 0, no signal -100; actives 1.6% (n = 350,000); GFP signal change (wild-type ribosome), % (no concentration beside the values);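 active = significant combined selectivity score with lowered wild-type GFP, culture density cut under 30%, mutant RFP and density less affected; inactive = any of these conditions unmet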; note: one replicate is shown; some compounds called inactive have numbers as strong as hits
MLL AF4-AF9 inh: inhibitors of AF4 peptide binding to AF9, primary screen, biochemical, AlphaScreen, biotin-AF4 peptide, FLAG-AF9, single point | inhibition, % at 10 µM | AID 651704, 2012 | actives 0.47% (n = 350,000);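 active = every replicate reaching a set inhibition limit, whatever the replicate mean, cut at about 25% in these data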;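 note: 0% = plate neutral control median and 100% = total signal loss; the record names both 10 and 1 µM as test concentration; the first replicate is given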
Target sequence (P42568 whole entry, looked up): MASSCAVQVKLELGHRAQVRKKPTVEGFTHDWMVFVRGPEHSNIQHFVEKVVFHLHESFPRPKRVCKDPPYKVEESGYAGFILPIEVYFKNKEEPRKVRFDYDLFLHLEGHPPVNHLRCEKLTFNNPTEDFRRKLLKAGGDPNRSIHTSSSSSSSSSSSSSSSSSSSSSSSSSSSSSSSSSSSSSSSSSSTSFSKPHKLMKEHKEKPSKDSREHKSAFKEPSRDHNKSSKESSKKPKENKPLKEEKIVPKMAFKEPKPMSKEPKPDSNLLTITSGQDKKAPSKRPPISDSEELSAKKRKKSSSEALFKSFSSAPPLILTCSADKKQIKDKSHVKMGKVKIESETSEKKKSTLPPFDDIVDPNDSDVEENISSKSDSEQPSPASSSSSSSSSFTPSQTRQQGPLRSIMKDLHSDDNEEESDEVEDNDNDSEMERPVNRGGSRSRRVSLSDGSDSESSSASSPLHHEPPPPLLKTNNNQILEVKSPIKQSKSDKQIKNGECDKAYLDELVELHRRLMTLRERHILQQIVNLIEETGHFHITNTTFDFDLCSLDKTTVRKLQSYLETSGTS
FGF22 binding: binders of human FGF22 protein, primary screen, FGF22 synaptogenesis inhibitor project, biophysical, thermal shift, single point | recombinant FGF22 thermal shift, SYPRO orange fluorescence; percent of sucrose octasulfate shift, DMSO zero | calls only at 9.99 µM | actives 1.5% (n = 340,000) | AID 651658, 2012;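 active = melting point raised past a set limit in the mean and every replicate; three in four hits are not shown here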
Target sequence (Q9HCT0 whole entry, looked up): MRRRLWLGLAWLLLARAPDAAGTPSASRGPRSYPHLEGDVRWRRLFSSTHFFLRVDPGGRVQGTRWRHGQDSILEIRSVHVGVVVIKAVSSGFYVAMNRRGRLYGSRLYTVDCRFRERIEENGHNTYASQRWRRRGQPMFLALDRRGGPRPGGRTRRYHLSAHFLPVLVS
rRNA inh HTS OD600: further read-out of rRNA inh HTS, marked with its call; OD600 change, %; measured here: OD600 growth;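 optical density of the mix in the first replicate; 0 = DMSO median and -100 = no signal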
rRNA inh HTS RFP: also measured in rRNA inh HTS; calls as there; RFP signal change, %; measured here: RFP humanized mutant strains;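 first replicate; 0 = DMSO median and -100 = no signal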
* hit, by the source's call; i = inactive.

rRNA inh HTS RFP,rRNA inh HTS,rRNA inh HTS OD600,SMILES,FGF22 binding,MLL AF4-AF9 inh
-1.4,1.9,2.6,CC(C)c1cn(CC[C@@H]2CC[C@@H](NC(=O)c3cccc(F)c3)[C@H](CO)O2)nn1,i,0.2
1.9,-0.8,-14.5,C[C@H](CO)N1C[C@H](C)[C@@H](CN(C)Cc2ccncc2)OCCCC[C@H](C)Oc2ccc(NC(=O)Nc3ccccc3)cc2C1=O,i,0.2
0.2,4.5,5.1,C[C@H](CO)N1C[C@H](C)[C@@H](CN(C)CC2CC2)Oc2ccc(NC(=O)CCN3CCOCC3)cc2CC1=O,i,-5.2
18.9,-15.9,-33.7,N#Cc1cccc(-c2ccc3c(c2)[C@H]2[C@H](CCN2S(=O)(=O)c2ccccc2F)[C@@H](CO)N3)c1,i,3.8
4.2,14.6,11.4,CC1CCCN(C(=O)c2ccc3c(=O)n4nc(Nc5ccccc5)sc4nc3c2)C1 (centres undefined),i,9.7
7.9,-9.3,-37.6,O=C(C[C@@H]1C[C@@H]2c3cc(NS(=O)(=O)c4ccc(F)cc4)ccc3O[C@@H]2[C@@H](CO)O1)NCc1cc(F)ccc1F,i,1.9
17.7,-1.2,-9.2,C[C@H]1CN([C@@H](C)CO)C(=O)Cc2cc(NC(=O)Cc3ccccc3)ccc2O[C@@H]1CN(C)CC1CCCCC1,i,-0.8
-0.1,1.7,-6.8,O=C(Nc1ccc2c(c1)[C@@H]1C[C@@H](CC(=O)N3CCc4ccccc4C3)O[C@H](CO)[C@@H]1O2)c1cccnc1,i,-1.1
0.4,6.2,4.8,CC(C)NC(=O)Nc1ccc2c(c1)CC(=O)N([C@H](C)CO)C[C@@H](C)[C@H](CN(C)C(=O)Nc1ccccc1)O2,i,1.9
-8.9,-43.0,-71.7,O=C1NC[C@H](CCCCN2C[C@H](Cc3ccccc3)N(CCC3CCCCC3)C(=O)C2=O)N(CCc2ccc(O)cc2)C1=O,i,3.4
-3.9,1.3,-4.5,COCC(=O)N(C)C[C@@H]1Oc2ncc(-c3ccc(F)cc3)cc2C(=O)N([C@@H](C)CO)C[C@@H]1C,i,-2.8
-4.0,3.4,11.8,C[C@H]1CN([C@@H](C)CO)C(=O)c2cc(C3=CCCC3)cnc2O[C@H]1CN(C)Cc1ccccc1C(=O)O,i,-4.9
-1.1,-0.8,-5.6,O=C(N[C@H]1CC[C@@H](CCNC(=O)c2ccccc2F)O[C@@H]1CO)c1cnccn1,i,-2.8
-0.5,-0.5,4.0,O=C(NC1CCC1)[C@H]1[C@H](CO)[C@H]2Cn3c(ccc(C4=CCCC4)c3=O)[C@@H]1N2CC1CC1,i,-0.7
2.8,0.9,-6.8,C[C@@H]1CN([C@@H](C)CO)C(=O)Cc2cc(NC(=O)Cc3ccccc3)ccc2O[C@@H]1CN(C)S(=O)(=O)c1ccccc1,i,-4.6
-0.8,12.8,14.4,COCCNC(=O)C1(C)CCN(C(=O)c2ccc3c(c2)C(C)(C)CCC3(C)C)C1 (centres undefined),i,-4.5
-1.3,9.7,4.5,CC(C)C[C@@H](CN)NC(=O)c1nc[nH]c1C(=O)N[C@@H](CC(=O)O)C(=O)CNC[C@H](C)NC(=O)c1nc[nH]c1C(=O)N[C@@H](CC(=O)O)C(=O)O,i,1.1
3.0,21.6,15.4,CCCCn1nnnc1C(c1ccccc1)N1CCN(CC)CC1 (centres undefined),i,0.6
-1.3,-0.9,-4.9,C[C@@H]1CN([C@H](C)CO)C(=O)c2cc(C#Cc3ccccc3F)cnc2O[C@H]1CN(C)C(=O)C1CCOCC1,i,-1.3
18.5,11.1,-2.1,Cc1ccccc1Cn1c(C)c(C(=O)NCc2cccc(C(F)(F)F)c2)sc1=O,i,-0.9
0.1,-4.4,6.8,COc1ccc(NC(=O)Nc2ccc3c(c2)[C@@H]2C[C@@H](CC(=O)NCCc4ccccc4)O[C@@H](CO)[C@@H]2O3)cc1,i,-3.2
-2.5,1.2,12.2,CCCNC(=O)N1[C@H](CO)[C@H](c2ccccc2)C12CN(C(=O)c1cccnc1)C2,i,-11.3
-1.1,-0.7,3.0,COCC(=O)Nc1ccc2c(c1)OC[C@H](C)N(C(=O)c1ccccc1)C[C@H](C)[C@H](OC)CN(C)C2=O,i,-2.9
1.5,2.3,-7.9,CCCNC(=O)Nc1ccc2c(c1)C(=O)N(C)C[C@H](OC)[C@@H](C)CN(Cc1cccnc1)[C@H](C)CO2,i,-1.8
-1.4,-0.1,-3.8,C[C@H](CO)N1C[C@H](C)[C@H](CN(C)C(=O)Nc2ccc3c(c2)OCO3)Oc2c(NC(=O)C3CCOCC3)cccc2C1=O,i,-1.3
-9.2,-46.9,-66.3,c1ccc(CCNc2ccc3ncc(-c4cccc5ccccc45)n3n2)nc1,i,8.6
-0.5,2.6,4.5,COCC(=O)Nc1ccc2c(c1)C(=O)N(C)C[C@@H](OC)[C@@H](C)CN(C(=O)CC1CC1)[C@@H](C)CO2,i,0.5
0.2,-5.7,-15.0,COc1ccc(C(=O)N2CCCC(c3cc(C(=O)Nc4ccccc4)no3)C2)cc1 (centres undefined),i,-1.7
-0.8,-0.2,3.9,Cc1noc(C)c1NC(=O)N[C@@H]1CC[C@H](CCNC(=O)C2CCCCC2)O[C@H]1CO,i,-2.0
-0.9,1.2,0.4,O=C(C[C@@H]1C=C[C@H](NS(=O)(=O)c2cccc(F)c2)[C@H](CO)O1)N1CCCCC1,i,2.5
-4.1,4.4,7.6,Cc1noc(C)c1NC(=O)N(C)C[C@@H]1Oc2c(NC(=O)C3CC3)cccc2C(=O)N([C@@H](C)CO)C[C@@H]1C,i,-4.9
-2.0,7.3,2.2,COc1ccc(S(=O)(=O)Nc2cccc3c2O[C@@H](CN(C)S(=O)(=O)c2ccc(F)cc2)[C@H](C)CN([C@@H](C)CO)C3=O)cc1,i,-6.3
0.2,-2.1,1.8,COc1ccc2c3c([nH]c2c1)[C@H](CO)N(C(=O)C1CCCC1)CC31CCN(S(C)(=O)=O)CC1,i,5.4
5.3,-40.1,-57.3,Cc1ccc(S(=O)(=O)NCC(=O)NCC(=O)N(C)Cc2ccc(Br)s2)cc1C,i,-2.5
-0.9,2.1,3.0,C[C@@H]1CN([C@@H](C)CO)C(=O)c2cc(C#Cc3ccccc3)cnc2O[C@@H]1CN(C)C(=O)c1ccccc1F,i,4.2
-3.6,3.1,8.0,CNC(=O)C[C@H]1CC[C@@H]2[C@H](COc3ccc(NC(=O)c4ccc(F)c(F)c4)cc3C(=O)N2C)O1,i,-1.0
4.4,-9.0,-13.2,CO[C@H]1CN(C)C(=O)c2ccc(NS(=O)(=O)c3cn(C)cn3)cc2OC[C@@H](C)N(Cc2cccc(F)c2)C[C@@H]1C,i,1.6
8.7,2.1,-22.0,COc1ccc(NC(=O)Nc2ccc3c(c2)C(=O)N([C@H](C)CO)C[C@@H](C)[C@@H](CN(C)Cc2ccccc2)OCCCC[C@@H](C)O3)cc1,i,18.1
-1.8,-1.0,2.2,CC(C)NC(=O)N1C[C@H]2[C@@H](c3ccccc31)[C@@H](CO)N2C(=O)Nc1cccc(F)c1,i,-3.2
0.1,1.5,-0.1,Cc1noc(C)c1S(=O)(=O)Nc1ccc2c(c1)CC(=O)N([C@H](C)CO)C[C@@H](C)[C@H](CN(C)CC1CCCCC1)O2,i,-2.5
-0.1,-10.6,1.0,O=C1C=C(c2cccc3c2Oc2ccccc2S3)C[C@@H](c2ccc3c(c2)OCO3)C1,i,3.0
-3.4,2.1,-0.9,CO[C@@H]1CC[C@H]2CCN(C)C(=O)[C@H](C)N(C)C(=O)c3cc(C#N)ccc3OC[C@H]1O2,i,0.7
-0.1,-5.9,0.8,O=C(Nc1ccccc1F)N1CCCCN2[C@H](CO)[C@@H](c3ccc(-c4cccnc4)cc3)[C@@H]2C1,i,-2.8
4.5,3.1,-1.4,CCCN(C)C[C@H]1OCCCC[C@@H](C)Oc2ccc(NS(=O)(=O)c3ccc(C)cc3)cc2C(=O)N([C@H](C)CO)C[C@@H]1C,i,4.3
-2.2,10.2,8.1,O=S(=O)(NCc1nnnn1-c1ccc(F)cc1)c1ccc(F)cc1,i,-3.6
-5.8,-55.2,-54.6,O=C(Nc1cccc(F)c1)N1CCCCN2[C@@H](CO)[C@@H](c3ccc(C#Cc4ccccc4)cc3)[C@@H]2C1,i,12.2
-0.3,2.0,3.4,COCCNC(=O)C[C@@H]1C[C@@H]2c3cc(NC(=O)CC4CC4)ccc3O[C@@H]2[C@H](CO)O1,i,0.0
0.2,-0.4,3.4,NCC[C@H]1CC[C@H](NC(=O)Nc2ccc(F)cc2)[C@H](CO)O1,i,4.6
1.3,2.3,-5.4,COc1ccc(S(=O)(=O)N(C)C[C@H]2OCCCC[C@H](C)Oc3ccc(NS(=O)(=O)c4ccc(F)cc4)cc3C(=O)N([C@H](C)CO)C[C@H]2C)cc1,i,-1.0
2.2,-2.1,-10.6,C[C@H]1CN([C@@H](C)CO)C(=O)c2cc(NS(=O)(=O)c3ccc(F)cc3)ccc2O[C@@H]1CN(C)Cc1ccc(-c2ccccc2)cc1,i,3.5
5.3,-29.2,-24.4,CO[C@@H]1CN(C)C(=O)c2ccc(NC(=O)c3nc4ccccc4s3)cc2OC[C@H](C)N(Cc2ccncc2)C[C@@H]1C,i,13.6
-1.0,6.7,13.2,COc1ccc(Cc2c(C(C)(C)C)nc3ccc(C)cn23)c(C)c1,i,1.6
0.2,-2.1,-5.1,C[C@@H]1CN([C@@H](C)CO)C(=O)c2cccc(NC(=O)NC3CCCCC3)c2O[C@@H]1CN(C)C(=O)Nc1ccc2c(c1)OCO2,i,7.7
-0.2,-0.3,1.9,CN(C)C(=O)C[C@H]1CC[C@@H]2[C@H](COC[C@H](O)CN2C(=O)C2CC2)O1,i,-1.3
32.8,0.6,-15.9,O=C(C[C@H]1CC[C@@H](NS(=O)(=O)c2ccc(F)cc2)[C@H](CO)O1)N1CCC(Cc2ccccc2)CC1,i,-0.1
0.9,4.8,8.3,COCc1cn(CC[C@@H]2CC[C@@H](NC(=O)Nc3ccc4c(c3)OCO4)[C@H](CO)O2)nn1,i,-2.5
0.1,2.0,7.1,CCC(=O)N(C)C[C@@H]1Oc2ncc(C#CC(C)(C)O)cc2C(=O)N([C@H](C)CO)C[C@H]1C,i,-3.3
1.2,-0.9,1.8,CCCC(O)C#Cc1cnc2c(c1)C(=O)N([C@H](C)CO)C[C@H](C)[C@H](CN(C)Cc1cccc(C(F)(F)F)c1)O2 (some centres undefined),i,2.3
1.0,-1.6,15.3,C[C@H]1CN([C@@H](C)CO)C(=O)Cc2cc(NC(=O)C3CCCCC3)ccc2O[C@@H]1CN(C)Cc1ccc(C(F)(F)F)cc1,i,-1.4
-15.5,-7.2,-40.8,Cc1c(C(=O)NCc2cccc(C(F)(F)F)c2)sc(=O)n1Cc1ccccc1F,i,3.0
0.1,17.9,9.4,Cc1ccc2nc3n(c(=O)c2c1)-c1ccccc1C(=O)NC3CC(C)C (centres undefined),i,-0.2
14.8,2.9,-10.0,C[C@H]1CN([C@@H](C)CO)C(=O)c2cc(/C=C/c3ccccc3)cnc2O[C@H]1CN(C)Cc1ccccc1,i,5.0
1.1,2.7,7.5,Cc1noc(C)c1S(=O)(=O)N(C)C[C@H]1OCCCC[C@H](C)Oc2ccc(NC(=O)CCCN(C)C)cc2C(=O)N([C@@H](C)CO)C[C@@H]1C,i,-0.8

As a short view, part of the list above:
rRNA inh HTS RFP,rRNA inh HTS,rRNA inh HTS OD600,SMILES,FGF22 binding,MLL AF4-AF9 inh
-4.1,4.4,7.6,Cc1noc(C)c1NC(=O)N(C)C[C@@H]1Oc2c(NC(=O)C3CC3)cccc2C(=O)N([C@@H](C)CO)C[C@@H]1C,i,-4.9
-2.0,7.3,2.2,COc1ccc(S(=O)(=O)Nc2cccc3c2O[C@@H](CN(C)S(=O)(=O)c2ccc(F)cc2)[C@H](C)CN([C@@H](C)CO)C3=O)cc1,i,-6.3
0.2,-2.1,1.8,COc1ccc2c3c([nH]c2c1)[C@H](CO)N(C(=O)C1CCCC1)CC31CCN(S(C)(=O)=O)CC1,i,5.4
5.3,-40.1,-57.3,Cc1ccc(S(=O)(=O)NCC(=O)NCC(=O)N(C)Cc2ccc(Br)s2)cc1C,i,-2.5
-0.9,2.1,3.0,C[C@@H]1CN([C@@H](C)CO)C(=O)c2cc(C#Cc3ccccc3)cnc2O[C@@H]1CN(C)C(=O)c1ccccc1F,i,4.2
-3.6,3.1,8.0,CNC(=O)C[C@H]1CC[C@@H]2[C@H](COc3ccc(NC(=O)c4ccc(F)c(F)c4)cc3C(=O)N2C)O1,i,-1.0

An excerpt of these results, as tab-separated lines:
mol	rRNA inh HTS RFP	rRNA inh HTS	rRNA inh HTS OD600	FGF22 binding	MLL AF4-AF9 inh
CO[C@@H]1CN(C)C(=O)c2ccc(NC(=O)c3nc4ccccc4s3)cc2OC[C@H](C)N(Cc2ccncc2)C[C@@H]1C	5.3	-29.2	-24.4	i	13.6
COCCNC(=O)C[C@@H]1C[C@@H]2c3cc(NC(=O)CC4CC4)ccc3O[C@@H]2[C@H](CO)O1	-0.3	2.0	3.4	i	0.0

Screening data: PubChem, Broad Institute

An excerpt (hit frequency here may not be typical).
